TRPML1 inh: inhibitors of human TRPML1 channel; Q9GZU1; TRPML1-inducible cells, Ca2+ dye fluorescence, FDSS; active compounds read low; inhibition of EC80 agonist-evoked calcium signal; activity change, negative = inhibition, % (no concentration beside the values); 390,000 tested, 0.02% active; AID 624415; in the data active means activity change below about -50%; inconclusive means about -30% to -50%; inactive means above about -30%;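 also: stimulus is agonist 54-4 at its EC80 concentration; % is scaled to controls: 0 for no effect and ±100 for the full control effect; compound concentration not given in the record; the text of the record puts the active cut at -80%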
Target sequence (Q9GZU1 whole entry, looked up): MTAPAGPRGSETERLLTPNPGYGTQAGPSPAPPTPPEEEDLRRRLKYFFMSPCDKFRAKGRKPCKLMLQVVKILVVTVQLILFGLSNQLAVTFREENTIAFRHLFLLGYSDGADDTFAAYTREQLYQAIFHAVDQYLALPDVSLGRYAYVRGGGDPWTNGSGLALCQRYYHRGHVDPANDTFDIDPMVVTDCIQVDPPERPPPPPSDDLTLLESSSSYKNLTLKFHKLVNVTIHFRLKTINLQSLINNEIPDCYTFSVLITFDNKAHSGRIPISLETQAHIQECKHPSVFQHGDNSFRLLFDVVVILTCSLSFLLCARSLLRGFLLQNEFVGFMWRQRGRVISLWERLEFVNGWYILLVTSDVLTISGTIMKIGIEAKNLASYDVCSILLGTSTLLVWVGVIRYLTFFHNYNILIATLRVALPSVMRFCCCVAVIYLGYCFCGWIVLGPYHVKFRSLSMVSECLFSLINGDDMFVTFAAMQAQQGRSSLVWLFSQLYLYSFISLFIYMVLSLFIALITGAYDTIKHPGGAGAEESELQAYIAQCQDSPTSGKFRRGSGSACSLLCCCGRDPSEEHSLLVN
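Tet-induced TRPML1-DL cells loaded with Ca8 no-wash calcium dye were read kinetically on FDSS. Compound addition was followed by EC80 agonist 54-4 (4 uM final); inhibition was read over 110 s.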
Six1-Eya2 inh: inhibitors of human Six1/Eya2 interaction | AlphaScreen GST-Six1/His-Eya2 binding, biochemical; active compounds read low; control for the full effect not named in the record | AID 651725 | activity change, % (test concentration not listed) | 360,000 tested, 0.56% active | Q15475+O00167; in the data active = activity change below about -65%; inconclusive = about -30% to -65%; inactive = above about -30%; also: % is scaled to controls: 0 for no effect and ±100 for the full control effect
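AlphaScreen with GST-Six1 and His-Eya2 (5X mix: 250 nM and 500 nM), glutathione donor and nickel acceptor beads; buffer 50 mM Tris pH 8.0, 300 mM NaCl, 1 mM TCEP; 1 h at 37 C in the dark.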
TRPML1 agonist: agonists of human TRPML1 channel | TRPML1-expressing cells, Ca2+ dye fluorescence, FDSS; host cell line not named in the record; reference of the full effect not given here | activation, % (no concentration beside the values) | 410,000 tested, 0.12% active; in the data active = activation above about 50%; inconclusive = about 30% to 50%; inactive = below about 30%; also: 0% is about no effect; the text of the record puts the active cut at 80%
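In this qHTS format, compounds were pin-transferred onto Ca8-dye-loaded TRPML1-DL cells induced with Tet overnight, and intracellular Ca2+ fluorescence was recorded kinetically for 110 s after a 10 s baseline. A subsequent 4uM final 54-4 (EC80) addition followed by a second 110 s read served as the antagonist phase.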
D2 PAM: potentiates the human D2 dopamine receptor allosterically. P14416. DiscoveRx D2 beta-arrestin cells, luminescence, 90 min; 100% = 57 uM dopamine signal. potentiation, % (test concentration not listed). 360,000 tested, 0.23% active. AID 624464; active = potentiation of 50% or more; inconclusive = 30% to 50%; inactive = 30% or less;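 also: compound concentration not given in the record; tested on top of an EC20 dose of dopamine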
Target sequence (P14416 whole entry, looked up): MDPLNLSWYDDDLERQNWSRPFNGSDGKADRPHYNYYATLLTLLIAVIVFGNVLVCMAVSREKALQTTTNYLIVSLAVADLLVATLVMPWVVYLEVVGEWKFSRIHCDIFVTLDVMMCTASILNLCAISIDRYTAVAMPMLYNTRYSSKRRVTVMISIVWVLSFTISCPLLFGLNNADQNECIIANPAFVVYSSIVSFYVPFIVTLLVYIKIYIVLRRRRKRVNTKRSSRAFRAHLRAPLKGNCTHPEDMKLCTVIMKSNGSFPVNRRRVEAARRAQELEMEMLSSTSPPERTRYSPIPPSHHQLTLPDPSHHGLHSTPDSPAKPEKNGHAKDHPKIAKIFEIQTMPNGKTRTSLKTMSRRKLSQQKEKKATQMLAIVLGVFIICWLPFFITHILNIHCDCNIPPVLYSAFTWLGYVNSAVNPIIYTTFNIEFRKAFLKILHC
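D2 cells co-treated with compound plus 50 nM dopamine (EC20) for 90 min at 37 deg C to detect potentiation. Beta-arrestin recruitment was read as enzyme-fragment luminescence after 1 h at ambient temperature. Full response was set by 57 uM dopamine.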
CtBP-E1A blk: blocks the CtBP interaction with E1A; 340,000 tested, 0.49% active; AlphaScreen GST-E1A/His-CtBP binding, 1536-well; active compounds read low; control for the full effect not named in the record; AID 651724; activity change, % (concentration not given with the values); in the data active means activity change below about -65%; inconclusive means about -30% to -65%; inactive means above about -30%; also: % is scaled to controls: 0 for no effect and ±100 for the full control effect
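Steps: dispense buffer (Tris pH 8.0, NaCl 300 mM, TCEP 1 mM, BSA, Tween 20); add 5X protein mix (GST-E1A, His-CtBP, 125 nM each); pin 23 nL compound; 2 h at 37 °C, dark; add 5X beads (50 ug/mL); 1 h; read.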
TRPV1 potentiator: potentiators of human vanilloid receptor 1 (TRPV1) | Q8NER1 | TRPV1-expressing cells, Fluo-8 calcium influx, capsaicin EC20 potentiation; host cell line not named in the record; control for the full effect not named in the record | potentiation, % at 8.33 µM | 320,000 tested, 0.02% active | AID 540277; active means potentiation above 80%; inconclusive means 30% to 80%; inactive means below 30%; also: 0% is about no effect
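TRPV1-expressing cells were cultured overnight at 35.5C and loaded with Fluo-8 calcium dye for 40 to 90 min at room temperature. After a 10 s baseline, compound was added and calcium influx was read kinetically for 3 min (ex 480/em 520 nm).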
Active calls of the source: *; ? = inconclusive; . = not tested or not shown. Rows are unselected; any-hit rate near 0.95%.

| cpd | SMILES | TRPML1 inh | Six1-Eya2 inh | TRPML1 agonist | D2 PAM | CtBP-E1A blk | TRPV1 potentiator |
| --- | --- | --- | --- | --- | --- | --- | --- |
| 1 | Cn1nnc2c(sc3nc(N4CCOCC4)c4c(c32)CCCC4)c1=O | -16 | 4 | -0.4 | -2 | 6 | -6 |
| 2 | O=C(COC(=O)c1cnccn1)Nc1c(Cl)cc(Cl)cc1Cl | 6 | 2 | 2.1 | -2 | -24 | -7 |
| 3 | COc1ccc(C2NC(=O)NC(C)=C2C(=O)Nc2cccc(C)c2C)cc1 (configuration not stated) | 4 | 2 | 0.1 | -6 | 8 | -4 |
| 4 | CC(C)CN(CC(C)C)C(=O)c1cc(S(=O)(=O)N2CCCCC2)c[nH]1 | 0 | -4 | 0.2 | -24 | 3 | -1 |
| 5 | O=C(Nc1ccccc1N1CCOCC1)c1ccc2c(c1)C(=O)N(Cc1ccncc1)C2=O | -17 | -13 | 0.9 | 24 | -8 | -13 |
| 6 | CC(OC(=O)c1cc(=O)c2cc(Cl)ccc2o1)C(=O)N1CCCC1 (configuration not stated) | 9 | -2 | 0.2 | -3 | 2 | 11 |
| 7 | CC(/C=N/NC(=O)c1ccccn1)=C\c1ccco1 | -2 | ? | -0.8 | -20 | . | -2 |
| 8 | CCOC(=O)C1=C(COC(=O)C2CC(=O)N(CCc3ccccc3)C2)NC(=O)NC1C (configuration not stated) | 2 | 2 | -0.4 | 1 | . | . |
| 9 | CC(=O)N1C[C@H]2CON(C)[C@H]2C[C@H]1c1cccc(-c2ccccc2C)c1 | -2 | 9 | -0.9 | . | 0 | . |
| 10 | CC(C)Cn1c(N)c(C(=O)COC(=O)c2cc3ccccc3cc2O)c(=O)n(C)c1=O | 7 | -4 | 1.2 | 14 | . | . |
| 11 | Cc1ccccc1-n1c(SCC(=O)N/N=C/c2sccc2C)nc2ccccc2c1=O | 6 | 1 | -0.6 | 14 | 5 | ? |
| 12 | Cc1cccc2sc(NC(=O)c3cccc(S(=O)(=O)N4CCc5ccccc54)c3)nc12 | 21 | 1 | 1.8 | 0 | 3 | 10 |
| 13 | CC(Oc1ccc(F)cc1)C(=O)Nc1ccccc1C(=O)NC1CC1 (configuration not stated) | -3 | 12 | 1.2 | -6 | 14 | 29 |
| 14 | C=CCc1cccc(CNc2ccc(Br)cc2)c1O | 33 | 11 | 1.7 | -1 | . | -4 |
| 15 | CCc1sc(C(=O)NNC(=O)c2cncc(Br)c2)cc1C | -14 | -1 | 1.9 | -10 | 2 | . |
| 16 | COc1ccc(CCn2c(O)c(C3=c4ccccc4=NC3=O)sc2=S)cc1OC | -4 | -2 | -0.1 | 28 | . | -3 |
| 17 | COc1ccc(-c2nnn(CC(=O)N(CC(=O)NC3CCCC3)Cc3ccco3)n2)cc1OC | 24 | -22 | -0.8 | -8 | 9 | 2 |
| 18 | CCC(=O)N1CCCc2cc(S(=O)(=O)N3CCN(c4ccccc4F)CC3)ccc21 | 9 | -2 | -0.1 | -7 | -2 | 0 |
| 19 | N#CC1=C2SCC(O)(c3ccccc3)N2C(=O)CC1c1ccccc1F (configuration not stated) | 15 | -11 | 0.2 | 0 | -7 | 0 |
| 20 | Cc1cc(C(=O)Nc2sc3c(c2C#N)CCC(C(C)(C)C)C3)no1 (configuration not stated) | -8 | -1 | 0.3 | -1 | -3 | -8 |
| 21 | COc1ccc(N2CCN(Cc3nc4ccccc4n3C)CC2)cc1 | -1 | -13 | -0.2 | -33 | 6 | -15 |
| 22 | O=C(COn1nnc2ccc(Cl)cc21)NCc1ccccc1 | 0 | 9 | 1.3 | -3 | -1 | -7 |
| 23 | COc1cc(O)c(CCC(=O)c2cc(OC)c(OC)c(OC)c2)c(OC)c1 | -14 | 3 | 2.0 | 1 | 4 | 3 |
| 24 | Cc1cccc(NC(=O)c2ccc(S(=O)(=O)N(C)CC3CCCO3)cc2)c1C (configuration not stated) | -8 | 2 | -0.2 | 1 | 1 | . |

4 of the compounds above, as labelled records:
19. N#CC1=C2SCC(O)(c3ccccc3)N2C(=O)CC1c1ccccc1F (configuration not stated)
  TRPML1 inh: 15 | Six1-Eya2 inh: -11 | TRPML1 agonist: 0.2 | D2 PAM: 0 | CtBP-E1A blk: -7 | TRPV1 potentiator: 0
18. CCC(=O)N1CCCc2cc(S(=O)(=O)N3CCN(c4ccccc4F)CC3)ccc21
  TRPML1 inh: 9 | Six1-Eya2 inh: -2 | TRPML1 agonist: -0.1 | D2 PAM: -7 | CtBP-E1A blk: -2 | TRPV1 potentiator: 0
22. O=C(COn1nnc2ccc(Cl)cc21)NCc1ccccc1
  TRPML1 inh: 0 | Six1-Eya2 inh: 9 | TRPML1 agonist: 1.3 | D2 PAM: -3 | CtBP-E1A blk: -1 | TRPV1 potentiator: -7
17. COc1ccc(-c2nnn(CC(=O)N(CC(=O)NC3CCCC3)Cc3ccco3)n2)cc1OC
  TRPML1 inh: 24 | Six1-Eya2 inh: -22 | TRPML1 agonist: -0.8 | D2 PAM: -8 | CtBP-E1A blk: 9 | TRPV1 potentiator: 2

(list continues)
| cpd | SMILES | TRPML1 inh | Six1-Eya2 inh | TRPML1 agonist | D2 PAM | CtBP-E1A blk | TRPV1 potentiator |
| --- | --- | --- | --- | --- | --- | --- | --- |
| 25 | Cc1ccc(NC(=O)c2cc([N+](=O)[O-])ccc2N2CCOCC2)cc1C | 25 | -5 | 1.0 | -8 | -10 | -5 |
| 26 | Cc1ccc(S(=O)(=O)NCC(=O)OCC(=O)Nc2cccc(S(=O)(=O)NC3=NCCCCC3)c2)cc1C | 19 | -4 | 1.4 | -2 | -7 | 1 |
| 27 | CCCCNC(=O)CNC(=S)N(Cc1ccc(C)cc1)Cc1ccco1 | 3 | -4 | 2.2 | 0 | 0 | -26 |
| 28 | CC(C)(C)/C(O)=C/c1nc2ccccc2[nH]c1=O | -15 | 5 | -0.5 | -6 | -3 | 4 |
| 29 | CC(=O)c1cc(Cl)ccc1OCc1cccc(S(=O)(=O)N2CCOCC2)c1 | -13 | 0 | -0.7 | 5 | 7 | ? |
| 30 | Cc1ccc(S(=O)(=O)SCCCSS(=O)(=O)c2ccc(C)cc2)cc1 | -13 | -5 | -0.3 | -3 | 8 | . |
| 31 | O=C(Nc1cccc(Cl)c1Cl)c1csc([C@@H]2O[C@H](CO)[C@H](O)[C@H](O)[C@H]2O)n1 | . | -6 | -0.7 | -16 | 2 | . |
| 32 | NC(=O)[C@@H]1CCCN1Cc1nc(-c2ccc(C(F)(F)F)cc2)no1 | 16 | 0 | 0.4 | -3 | . | -5 |

The list continues:
Every second line gives: TRPML1 inh, Six1-Eya2 inh, TRPML1 agonist, D2 PAM, CtBP-E1A blk, TRPV1 potentiator
(33) O=C(O)c1ccc(S(=O)(=O)c2ccc3c(c2)C(=O)N(NC(=O)c2ccncc2)C3=O)cc1
→ 26, 6, 1.1, -5, 0, -27
(34) O=C(Nc1cc(S(=O)(=O)Nc2ccccc2Cl)ccc1O)c1sc2cc(Cl)ccc2c1Cl
→ 4, 3, -0.4, -6, 6, -6
(35) Cc1cccc(OCC(=O)Nc2cc(S(=O)(=O)N3CCCCC3)ccc2N2CCN(C)CC2)c1
→ 3, -17, 0.8, -20, ., -3
(36) Cc1ccc(C)c(OCC(O)CN2CCC(C)CC2)c1C (configuration not stated)
→ -1, 3, -0.9, -22, 11, -11
(37) C[C@H](NC(=O)c1cc2cc(Cl)ccc2n1C)C(=O)N1CCC[C@H]1C(=O)O
→ ., -25, ., -27, -10, -7
(38) Cc1ccccc1N1CCN(C(=O)c2ccccc2NC(=O)/C=C\C(=O)O)CC1
→ -16, 14, 0.0, -11, -1, 0
(39) CCCCNC1=C(Br)C(=O)CC(C)(C)C1
→ 25, 14, -0.8, 5, 0, 0
(40) CC1=C(C)CC(C(=O)Nc2nc(-c3ccc(F)cc3)c(C)s2)C(C(=O)O)C1 (configuration not stated)
→ 2, 10, 0.1, -16, 3, 23
(41) Cc1nnc(NC(=O)CSc2nc(C3CCCCC3)nc3ccccc23)s1
→ -4, 3, 0.3, 2, 8, -16
(42) O=C(COc1ccccc1)N1CCN(c2ncnc3c2cnn3-c2ccccc2)CC1
→ 7, -29, -0.8, 5, -12, -17
(43) O=C(c1cccc2ccccc12)N1CCN(c2ccc([N+](=O)[O-])c(N3CCOCC3)c2)CC1
→ -10, -26, -0.1, -4, 2, 11
(44) CC(NC(=O)c1nn(C)c(=O)c2ccccc12)c1ccc(F)cc1 (configuration not stated)
→ 4, 3, 0.4, 11, 0, 22
(45) COc1ccc(-c2ccc(CN3C(C(C)C)C(=O)N(Cc4cn(Cc5ccco5)nn4)CCS3(=O)=O)cc2)cc1OC (configuration not stated)
→ 6, -5, 0.9, -2, -18, .
(46) CCCCNC(=O)c1cn(CC)c2ccc(S(=O)(=O)N3CCCCCC3)cc2c1=O
→ -2, -1, -0.9, -4, 1, -11
(47) O=C(NCCSc1c[nH]c2ccccc12)C1CC1
→ -3, -1, 0.0, 1, -3, -42
(48) CCN(CC)S(=O)(=O)c1cccc(NC(=O)COC(=O)c2cncc(Br)c2)c1
→ -13, -1, 1.1, -12, 2, .
(49) Cc1nc2ccccn2c1C(=O)NNC(=O)Nc1cccc(C(F)(F)F)c1
→ 23, -2, 0.5, -13, -7, 8
(50) CC(O)C(=O)N/N=C/c1cccc2ccccc12 (configuration not stated)
→ -7, -4, 0.9, -7, ., 8
(51) CSc1ncccc1C(=O)N1CCCC(N2CCN(c3ccccc3C)CC2)C1 (configuration not stated)
→ 4, -5, -0.9, -27, -6, .
(52) CCOC(=O)N1CCC(NC(=O)c2cc(C(=O)NC3CCN(Cc4ccccc4)CC3)ccc2CO)CC1
→ -12, -1, -0.4, -1, 0, 13
(53) CN(C)CCNc1ccc(-c2n[nH]c(=O)c3ccccc23)cc1[N+](=O)[O-]
→ 8, -4, -1.1, -5, -8, 18
(54) Cc1ccc(S(=O)(=O)N2CCOCC2)cc1C(=O)N1CC(C)OC(C)C1 (configuration not stated)
→ 26, -8, 0.5, -7, -2, -3
(55) O=c1[nH]c(Cc2cccs2)nc2ccccc12
→ 21, 2, 3.1, -6, -1, -3
(56) COC(=O)C(C(=O)Nc1cccc(Cl)c1C)C1CCCC1 (configuration not stated)
→ 2, 1, 0.1, -9, ., 4
(57) CCOC(=O)N1CCN(S(=O)(=O)c2ccc(NC(C)=O)cc2)CC1
→ 14, 31, 0.3, -2, 5, -12
(58) Cc1cccc(NC(=O)CN2C(=O)COc3ccc(Cl)cc32)c1C
→ -1, -3, 1.0, -1, 3, .
(59) O=C(O)C1C2C=CC(O2)C1C(=O)Nc1ccc(S(=O)(=O)Nc2ccccc2)cc1 (configuration not stated)
→ -9, 0, 0.6, -13, 2, 8
(60) COc1cc(/C=C/C(=O)Nc2nnc(CC(C)(C)C)s2)cc(OC)c1OC
→ -1, 11, -1.1, -5, 10, 2

Screening results: PubChem, National Center for Advancing Translational Sciences (NCATS)
